# PABP polyA inh: blocks human PABP binding to poly(A) RNA | fluorescence polarization | actives 1% (n = 290,000) | P11940 | inhibition, % at 35 µM | AID 2014;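 active = 50% or more with normal probe brightness, or confirmed in later tests; inconclusive = above 50% with abnormal brightness, or retests that disagree; inactive = below 50% or failed in later tests; about a fifth of its hits are not listed in these tables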;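 also: calls also rest on retests at 20 µM and on dose response follow-up; controls were probe without protein and protein plus probe with vehicle; some compounds called inactive have numbers as strong as hits; many hits fall short of the cut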
# Target sequence (P11940 whole entry, looked up): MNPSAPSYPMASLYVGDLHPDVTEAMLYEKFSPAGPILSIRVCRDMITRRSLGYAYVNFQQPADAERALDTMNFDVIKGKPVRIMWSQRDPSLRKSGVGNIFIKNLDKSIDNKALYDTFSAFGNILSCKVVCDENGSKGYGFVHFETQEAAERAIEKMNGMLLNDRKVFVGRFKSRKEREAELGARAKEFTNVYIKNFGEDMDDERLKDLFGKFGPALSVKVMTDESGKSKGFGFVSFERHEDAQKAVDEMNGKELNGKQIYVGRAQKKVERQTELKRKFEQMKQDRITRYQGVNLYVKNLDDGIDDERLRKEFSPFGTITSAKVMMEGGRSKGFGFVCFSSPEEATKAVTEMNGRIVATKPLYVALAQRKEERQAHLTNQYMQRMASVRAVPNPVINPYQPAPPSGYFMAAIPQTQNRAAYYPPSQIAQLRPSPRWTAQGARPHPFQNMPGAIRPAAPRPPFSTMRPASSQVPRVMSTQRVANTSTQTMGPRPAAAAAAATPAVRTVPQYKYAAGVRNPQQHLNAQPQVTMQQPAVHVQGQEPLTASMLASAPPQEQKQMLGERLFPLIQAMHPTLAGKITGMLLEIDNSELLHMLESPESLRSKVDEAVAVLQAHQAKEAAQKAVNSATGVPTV
# Rce1 inh: blocks yeast Ras-converting enzyme | actives 0.27% (n = 290,000) | AID 2563 | yeast membranes, quenched prenylated peptide cleavage fluorescence | calls only | Q03530;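 active = fall in fluorescence gain of 50% or more versus controls, with final raw signal at or below 3038400; inconclusive = same 50% fall but final raw signal above 3038400; inactive = fall in fluorescence gain under 50%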;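 also: plate controls were neutral control wells for no effect and wells lacking membranes for full effect; tested at 10 µM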
# Target sequence (Q03530 whole entry, looked up): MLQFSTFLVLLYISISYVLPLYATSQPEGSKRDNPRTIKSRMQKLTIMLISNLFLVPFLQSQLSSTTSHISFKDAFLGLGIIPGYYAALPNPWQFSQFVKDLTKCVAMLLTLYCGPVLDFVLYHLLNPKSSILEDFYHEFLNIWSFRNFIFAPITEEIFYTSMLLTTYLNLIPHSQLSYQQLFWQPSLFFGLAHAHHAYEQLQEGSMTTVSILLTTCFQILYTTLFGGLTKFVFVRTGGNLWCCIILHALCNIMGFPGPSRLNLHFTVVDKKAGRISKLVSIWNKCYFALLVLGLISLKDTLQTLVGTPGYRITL
# Env fusion inh: blocks HIV Env-driven cell-cell fusion. HeLa-JRFL Env/CEM21 cell fusion, luciferase. inhibition, % at 12.3 µM. actives 1.1% (n = 360,000);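 active = mean replicate inhibition score of at least 50 and every replicate individually at or above 50; inconclusive = only one of the two criteria met; inactive = mean below 50 and not all replicates reaching 50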;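 also: 0% = plate neutral controls and 100% = maraviroc near 300 nM; one replicate is shown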
# eIF4H inh: inhibitors of RNA binding by human eIF4H | Q15056 | eIF4H fluorescence polarization binding assay | inhibition, % at 35 µM | actives 0.94% (n = 290,000);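 active = 50% or more with normal probe brightness, or confirmed in later tests; inconclusive = above 50% with abnormal brightness, or retests that disagree; inactive = below 50% or failed in later tests; about a fifth of its hits are not listed in these tables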;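 also: calls also rest on retests at 20 µM and on dose response follow-up; 0% = protein and probe with vehicle and 100% = probe without protein; strong numbers were not always called active; many hits fall short of the cut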
# CSC inhib: cancer stem cell inhibition; cancer stem cell-like cells viability, luminescence; inhibition, % at 7.5 µM; actives 1.1% (n = 300,000); AID 2717;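 active = mean at 75% or more and at least half the replicates too; inconclusive = mean and replicates disagree; tested in HMLE shEcad cells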;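 also: 0% = median of negative and 100% = median of positive control wells; the first replicate is given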
# UUG fidelity: modulators of start codon recognition fidelity in yeast | S. cerevisiae UUG-firefly luciferase reporter, luminescence/redox ratio | activity score, % at 18.7 µM | actives 0.13% (n = 350,000) | AID 602363;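 active = replicate mean at a twofold rise or more, about +100% in these data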;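 also: firefly luciferase made from a UUG start codon reports start codon fidelity; reporter light over untreated wells divided by growth signal over untreated wells; some hits fall short of that in this replicate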
# MT1-MMP act inh: blocks activation of human MT1-MMP | GFP/RFP ratio change, % at 20 µM | P50281 | actives 0.061% (n = 360,000) | HT1080 RFP-PRO-GFP cells, GFP/RFP ratio fluorescence, overnight; percent of plate control window, DMSO zero;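 active = GFP/RFP ratio change of at least 30% with cell ATP level not reduced by more than half and red fluorescence within 50% of control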; also: strong numbers were not always called active
#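 Assay system: HT1080 RFP-PRO-GFP cells. Benchmarks: DMSO vehicle wells and RFP-L50D-GFP reporter cell wells. Times: overnight cell settling, then overnight compound exposure, 37 °C, 5% CO2. Compound: 20 µM single dose, 1% DMSO. Read-out basis: GFP/RFP fluorescence ratio.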
# eIF4H inh retest: further read-out of eIF4H inh, marked with its call; inhibition, %; compound at 20 µM; confirmation average;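 mean of two retest wells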
# PABP polyA inh retest: further read-out of PABP polyA inh, marked with its call; inhibition, %; compound at 20 µM; confirmation repeats;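 mean of two retest wells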
# MT1-MMP act inh RFP: recorded beside MT1-MMP act inh, whose call it bears; RFP signal change, %; measured here: RFP expression control read;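 0 = vehicle wells; hits needed this value within 50% of zero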
# * = called active by the depositor; i = inactive; u = inconclusive; x = no result given.
SMILES,PABP polyA inh,Rce1 inh,Env fusion inh,eIF4H inh,CSC inhib,UUG fidelity,MT1-MMP act inh,MT1-MMP act inh RFP,others
O=C(CCC(=O)OCC(=O)c1ccc(F)cc1)NC1CCCCC1,7,i,-26,-5,-3,-4,-1,3,
N#Cc1c(N(CCO)CCO)nc(N)c2c(N)nc3c(c12)CC(=O)N3Cc1cccs1,u,i,x,u,-2,x,-14,6,
O=S(=O)(c1ccccc1)c1nc(Nc2cccc(O)c2)sc1Cl,-8,i,21,8,10,-20,-4,-16,
O=C(CCSCCc1ccccn1)Nc1ccc(Br)cn1,-8,i,x,-2,3,-15,7,3,
COc1cccc(NC(=O)CSc2nnc(Cn3c(=O)sc4ccccc43)n2C)c1,-10,x,14,4,-13,-4,11,3,
CC(C)CNC(=S)N1CCN(c2nc(-c3ccc(Cl)cc3)cs2)CC1,4,i,-24,0,2,-23,0,-21,
Cc1cc(C)c2sc(NNC(=O)C3COc4ccccc4O3)nc2c1 (stereo not drawn),0,x,-2,2,22,-15,5,10,
COc1ccc(OC)c(NC(=O)c2ccc(NC(C)=O)cc2)c1,-3,i,x,6,-5,x,8,-2,
CN(C(=O)CSc1nc(N)nn1-c1ccccc1)c1ccccc1,0,i,-9,-7,-4,-1,-2,1,
CCOC(=O)C(=O)Nc1ccccc1C(=O)NCc1ccccc1,-12,i,13,-3,-12,x,-2,1,
CCOC(=O)[C@@H]1[C@H]2COc3cc(OC)ccc3[C@H]2N2C(=O)N(c3ccccc3)C(=O)[C@]12C,x,x,-36,x,-13,-9,-2,0,
Cn1c(=O)cc(OCC(=O)NCc2cccnc2)c2ccccc21,-6,i,17,-11,-8,-7,6,2,

# As a working copy, some entries already given:
SMILES,PABP polyA inh,Rce1 inh,Env fusion inh,eIF4H inh,CSC inhib,UUG fidelity,MT1-MMP act inh,MT1-MMP act inh RFP,others
CCOC(=O)C(=O)Nc1ccccc1C(=O)NCc1ccccc1,-12,i,13,-3,-12,x,-2,1,
CCOC(=O)[C@@H]1[C@H]2COc3cc(OC)ccc3[C@H]2N2C(=O)N(c3ccccc3)C(=O)[C@]12C,x,x,-36,x,-13,-9,-2,0,
Cn1c(=O)cc(OCC(=O)NCc2cccnc2)c2ccccc21,-6,i,17,-11,-8,-7,6,2,

# (more compounds)
SMILES,PABP polyA inh,Rce1 inh,Env fusion inh,eIF4H inh,CSC inhib,UUG fidelity,MT1-MMP act inh,MT1-MMP act inh RFP,others
CC(=O)C[C@H]1c2cc(C(F)(F)F)ccc2S(=O)(=O)N1C1CCCCC1,x,i,-11,x,-11,-14,-2,-9,
O=c1c2ccc(Cl)cc2nc(-c2cccc(C(F)(F)F)c2)n1O,-6,i,x,4,-6,x,-8,-19,
CCOC(=O)c1ccc(NC(=O)CSc2nc(N)c(NC(=O)c3ccc(Br)o3)c(=O)[nH]2)cc1,10,i,x,-2,-12,-18,3,4,
Cc1ccc(S(=O)(=O)N(C)C)cc1NC(=O)COC(=O)CNC(=O)c1cccs1,x,i,-9,x,x,-11,3,3,
CCS(=O)(=O)N1CCC(NC(=O)C(Cc2cccc(OC)c2OC)NC(C)=O)CC1 (stereo not drawn),-1,i,-5,6,x,1,-5,6,
O=C(CSc1nnc(-c2ccccc2)o1)Oc1ccc(Br)cc1,-4,i,x,-3,3,x,19,5,
CCOc1ccc(-c2noc(CCCC(N)=O)n2)cc1OC,-1,i,x,-6,-8,-12,4,2,
CCCNC(=O)c1ccc2c(=O)n(Cc3ccco3)c(=S)[nH]c2c1,99*,i,-10,91*,-8,-21,1,-3,eIF4H inh retest=102*;PABP polyA inh retest=66*
CC1(C)C2([N+](=O)[O-])CN3CC1([N+](=O)[O-])CN(C2)C3C(O)C(O)C(O)CO (stereo not drawn),3,i,0,3,14,-10,1,-1,
O=C(NNC1=Nc2ccccc2SC1)c1ccc(F)cc1,-7,i,-9,1,x,x,3,-18,
CCOC(=O)c1c(CN2CCOCC2)n(-c2ccccc2)c2ccc(O)cc12,6,i,42,-11,-7,-5,-4,-8,
O=S(=O)(NCCc1csc(-c2ccccc2)n1)c1ccc2c(c1)OCCO2,6,i,x,1,6,-6,1,-4,
CC(OC(=O)c1cc2sccc2n1C)C(=O)NCC1CCCO1 (stereo not drawn),1,i,x,-1,-5,2,0,-2,
O=c1ccc(/C=C/c2ccccc2)nn1Cc1ccc(Cl)cc1Cl,-2,i,x,-2,8,x,4,-3,
O=[N+]([O-])c1ccccc1S(=O)(=O)c1ccccc1,3,i,-4,1,-14,x,4,3,
Nc1nc(SCC(=O)Nc2ccc(Cl)cc2)[nH]c(=O)c1-c1ccccc1,-7,i,-10,2,x,-4,0,-6,
CCOCCCNC(=O)c1ccc2c(c1)OCO2,-5,i,-64,-6,-13,-17,4,9,
Cc1cc(NC(=O)c2c(Br)cnn2C)no1,1,i,-8,22,x,-16,-1,3,
COc1cccc(C(O)c2nc3ccccc3n2C(C)C)c1 (stereo not drawn),6,i,x,-2,2,-13,6,7,
Cc1cn(-c2cccnc2)c(C)c1CNC[C@H]1O[C@@H](n2cnc3c(N)ncnc32)[C@H](O)[C@@H]1O,x,x,-8,x,-17,-13,-5,2,
COc1ccc(C(CNC(=O)c2ccc(C)c(S(=O)(=O)Nc3ccccc3OC)c2)N2CCCC2)cc1 (stereo not drawn),42,i,-23,29,-4,1,0,6,
CC(=O)N1N=C(c2ccccc2)OC1c1cccnc1 (stereo not drawn),1,i,9,4,-9,-25,1,1,
Cn1cnnc1SC(C(=O)Nc1cc(Cl)cc(Cl)c1)c1ccccc1 (stereo not drawn),1,x,-52,-5,13,x,7,2,
Cc1cccc(N2C(=O)C(Cc3ccccc3)NC2=S)c1 (stereo not drawn),-5,i,-2,-8,-18,x,2,-1,
COc1cccc(CNC(=O)CCC2CCCN(C(=O)CCc3c(C)noc3C)C2)c1 (stereo not drawn),4,i,-5,-12,-7,-2,1,-2,
COc1ccc(C2(O)CN(c3ccc(C)cc3)C3=[N+]2CCCC3)cc1 (stereo not drawn),0,x,-2,0,17,x,-9,2,
CN(C)S(=O)(=O)c1cccc(NC(=O)Cn2cnc3ccccc3c2=O)c1,-2,i,x,-4,4,-23,5,-1,
CCOC(=O)c1sc2nc(NC(=O)C3CC3)sc2c1C,0,i,-43,-13,-13,-10,9,1,
Cc1nnc(Sc2nc3c(c(=O)n(C)c(=O)n3C)n2Cc2ccc(Cl)cc2)s1,-9,i,-23,3,-1,x,-3,5,
COCc1c(C(=O)N/N=C(/C)c2ccccc2)nnn1-c1nonc1N,2,i,-13,-4,-5,x,4,-1,
CCNS(=O)(=O)c1ccc(OCCNS(C)(=O)=O)cc1,9,i,x,5,-2,-8,7,6,
CCCc1cc(=O)[nH]c(Nc2cc(OC)ccc2OC)n1,3,i,x,-2,13,x,-2,-2,
CC(C)c1nc(SCC(=O)c2ccccc2)c2c(=O)n(C)c(=O)n(C)c2n1,-9,i,-7,-16,x,3,-2,-4,
O=C(Nc1ccc(-c2csc(Nc3cccc(C(F)(F)F)c3)n2)cc1)c1cccc(C(F)(F)F)c1,-7,i,-12,0,-2,-13,11,-11,
CC[C@@]12C(=O)N(c3ccccc3)C(=O)N1[C@H](c1ccc(Br)cc1)[C@@H]1C(=O)N(C(C)(C)C)C(=O)[C@@H]12,x,i,60*,x,4,22,-1,-2,
CCC1(C)Cc2c(sc3c2c(=O)n(-c2ccccc2)c(=O)n3C)CO1 (stereo not drawn),2,x,x,-1,13,-15,-2,4,
CCN(CC)S(=O)(=O)c1ccc(OC)c(NC(=O)c2cccc([N+](=O)[O-])c2C)c1,x,i,-19,x,-5,x,10,9,
O=C(CN1CCN(C(=O)C2CCN(C(=O)/C=C/c3ccccc3)CC2)CC1)Nc1ccccc1Cl,x,x,-8,x,x,-7,5,-5,
Cc1ccc(S(=O)(=O)N2C[C@H]3C(=O)C[C@@H]4C(=O)N(c5ccccc5)C(=O)[C@@H]4[C@@H]3C[C@@H]2c2ccccc2)cc1,x,x,-98,x,x,-12,-1,1,
CCN(CC)c1nc(C)c(C(C)=O)cc1C#N,9,i,x,7,-4,x,0,-2,
CCOC(=O)C1C(=O)C=C(c2ccccc2)CC1c1ccccc1 (stereo not drawn),x,x,1,x,x,-8,-2,-3,
COc1ccc(C)cc1NC(=O)NNC(=O)c1cc2ccccc2cc1O,-3,i,-26,0,6,-7,x,x,
N#Cc1nc(COc2ccccc2)oc1N1CCN(c2cccc(Cl)c2)CC1,3,i,10,4,2,-23,-1,2,
Cc1ccc(C(=O)CCC(=O)O)cc1,21,x,x,9,-6,x,x,x,
CCCc1nc2ccccc2c(=O)n1CC(=O)c1ccccc1,-5,i,34,-4,3,x,-5,-2,
O=C(NCc1ccco1)c1scc2c1OCCO2,3,i,x,11,12,-10,-1,0,
CC[C@@]1(c2ccccc2C)C(=O)N(C(=O)OC)N1C(=O)OC,-2,i,27,2,19,-12,4,2,
CCN(CC(=O)Nc1c(F)cccc1F)C(=O)c1n[nH]c2ccccc12,-17,x,0,-14,5,-19,1,-2,
CCOC(=O)N1CCC(NC(=O)CS(=O)Cc2nc(-c3ccccc3C)oc2C)CC1 (stereo not drawn),-1,i,-1,-5,-6,-1,1,-10,
O=C(Nc1ccccc1N1CCOCC1)C1CCCCN1S(=O)(=O)c1ccccc1 (stereo not drawn),-13,i,4,-4,-14,x,-7,-3,
O=C(Nc1scc(-c2ccccc2)c1C(=O)O)c1ccco1,4,i,-140,-10,-3,-12,-1,0,
O=c1[nH]c(-c2ccccc2)c(-c2ccccc2)[nH]1,9,u,-98,5,-7,-6,0,-1,
Cc1nn(C)cc1CN1CCCC(C(=O)c2ccc(-c3ccccc3)cc2)C1 (stereo not drawn),-10,i,8,-14,17,-19,6,-4,
Cc1ccc(/C=N/NC(=O)c2ccc(-c3ccccc3)cc2)o1,-13,i,-5,-12,17,-15,2,4,
c1ccc(CSc2nnc(-c3sccc3-n3cccc3)o2)cc1,-5,i,x,3,17,-14,-6,-8,
COc1cc(CC(=O)OCC(=O)NC2CCCCCC2)cc(OC)c1OC,x,x,-2,x,17,1,7,1,
COc1cccc(C2=CC(=O)CCC2)c1,x,i,u,x,-14,-15,-1,3,
CS(=O)(=O)Nc1ccc(C2=NN(S(=O)(=O)c3ccccc3)C(c3cccs3)C2)cc1 (stereo not drawn),0,i,-46,17,6,4,-24,0,
Cn1ccsc1=NC(=O)c1ccc(=O)[nH]c1,24,i,5,-22,-1,-12,-2,5,
CC1CCN(c2ccc(C(=O)OCC(=O)NCCN3C(=O)CSC3=O)cc2[N+](=O)[O-])CC1,-6,i,2,4,-3,x,2,-3,

# (listing goes on)
SMILES,PABP polyA inh,Rce1 inh,Env fusion inh,eIF4H inh,CSC inhib,UUG fidelity,MT1-MMP act inh,MT1-MMP act inh RFP,others
O=C1CCCN1S(=O)(=O)c1ccc(F)cc1,-1,i,0,-6,-2,14,-1,1,
COc1ccccc1CCC(=O)Nc1ncc(C)s1,0,i,-44,5,13,-14,-3,-4,
Cc1ccccc1CNC(=O)CCc1ccccc1,0,i,18,2,-10,-1,-3,-1,
O=C(Nc1cccnc1)c1cc(F)c(F)cc1Cl,-7,i,-1,-1,-12,-18,1,0,
COc1ccc(C(=O)c2ccccc2)cc1,16,i,1,6,-11,x,-2,0,
S=C(NCc1ccc2c(c1)OCO2)NC1CCN(Cc2ccccc2)CC1,-4,i,10,-2,-1,-11,3,-3,
O=C(CSc1nnc(-c2cccnc2)o1)OC1CCCCC1,-2,i,18,14,4,-8,2,2,
CCCCC(CC(O)COCCC)c1n[nH]c(=S)n1-c1ccccc1 (stereo not drawn),-14,i,12,6,1,x,0,4,

# Assay outcomes deposited in PubChem by several laboratories.
